Source: PubChem BioAssay
TRPV1 PAM: enhances activation of the human vanilloid receptor TRPV1. Q8NER1. TRPV1-expressing cells, Fluo-8 calcium influx, capsaicin EC20 potentiation; host cell line not named in the record; control for the full effect not named in the record. potentiation, % at 8.33 µM. 320,000 compounds, 0.02% hits; active means potentiation above 80%; inconclusive means 30% to 80%; inactive means below 30%; also: 0% is about no effect
Target sequence (Q8NER1 whole entry, looked up): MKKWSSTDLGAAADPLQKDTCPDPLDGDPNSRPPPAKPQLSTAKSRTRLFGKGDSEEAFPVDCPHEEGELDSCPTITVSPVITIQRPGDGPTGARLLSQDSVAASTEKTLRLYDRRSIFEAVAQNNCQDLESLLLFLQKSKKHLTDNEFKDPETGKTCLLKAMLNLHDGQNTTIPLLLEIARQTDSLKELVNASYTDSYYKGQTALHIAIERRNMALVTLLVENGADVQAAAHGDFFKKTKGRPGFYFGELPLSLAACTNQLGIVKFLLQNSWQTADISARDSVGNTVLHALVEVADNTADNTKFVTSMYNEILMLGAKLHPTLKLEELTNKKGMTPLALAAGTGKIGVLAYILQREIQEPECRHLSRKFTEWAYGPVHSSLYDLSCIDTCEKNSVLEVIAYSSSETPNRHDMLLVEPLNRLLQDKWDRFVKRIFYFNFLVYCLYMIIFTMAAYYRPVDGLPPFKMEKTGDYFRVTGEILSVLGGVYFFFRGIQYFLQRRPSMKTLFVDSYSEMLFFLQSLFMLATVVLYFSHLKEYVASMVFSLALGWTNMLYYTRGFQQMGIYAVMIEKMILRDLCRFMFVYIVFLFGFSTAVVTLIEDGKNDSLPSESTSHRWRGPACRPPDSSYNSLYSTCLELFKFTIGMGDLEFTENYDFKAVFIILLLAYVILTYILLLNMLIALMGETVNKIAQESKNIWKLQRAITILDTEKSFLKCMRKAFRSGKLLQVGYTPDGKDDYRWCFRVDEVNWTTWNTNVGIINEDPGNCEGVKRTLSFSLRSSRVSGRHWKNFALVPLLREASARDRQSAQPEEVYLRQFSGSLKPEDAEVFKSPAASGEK
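Cells expressing TRPV1 were dye-loaded with Fluo-8 and read kinetically: 10 s baseline, 3 min after compound (agonist portion), then 2 min after EC20 capsaicin (allosteric enhancer portion). Calcium-bound dye fluorescence at 480/520 nm.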
Sfp PPTase inh: blocks B. subtilis Sfp PPTase activity; Q9F4F7; Biochemical Sfp PPTase activity, qHTS; Potency, µM, without a hit: max response, negative = inhibition, hits mostly inhibitors; 310,000 compounds, 3.5% hits; active = well fitted inhibition curve with a large enough effect; inconclusive = small, poorly fitted or top-dose-only effect, or another doubt; inactive = no such curve, though single readings can be large or run the other way;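 also: the enzyme is Sfp with the accession as filed and its product quenches rhodamine fluorescence; potency is read from the fitted curve at half-maximal effect; 0% = enzyme reaction without inhibitor and -100% = no enzyme wells; top concentration of the series not given in the record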
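Fluorescence-quenching assay with 15 nM Sfp, 5 uM rhodamine-CoA and 12.5 uM BHQ-2-labelled ybbR peptide in pH 7.6 Hepes/MgCl2 buffer. Enzyme was pre-incubated with compound for 15 min at room temperature. Rate was taken from the 30-min fluorescence change (525/598 nm).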
Menin MLL FP FL: inhibitors of human menin-MLL interaction, wild-type MLL peptide; AID 1766; FP activity change, % at 61.4 µM; Fluorescence polarization, fluorescein-MLL peptide displacement from menin; 290,000 tested, under 10 active; inconclusive = falling polarisation curve, or a change in total fluorescence; inactive = total fluorescence flat and polarisation flat or rising; no compound was filed as active; the % refers to the polarisation; negative = inhibition;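 also: % of control where 0% means no effect; inhibitors lower the polarisation; unlabelled MLL peptide was the positive control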
gsp ag: activates gsp, the McCune-Albright syndrome mutation; gsp mutant cells, cAMP HTRF, 30 min; control for the full effect not named in the record; Potency, µM (titrated, usually from 76.9 µM), inactives show at the top dose activation (cAMP increase), hits mostly activators; 340,000 compounds, 0.13% hits; AID 624287; active = well fitted activation curve with a large enough effect; inconclusive = small, poorly fitted or top-dose-only effect, or another doubt; inactive = no such curve, though single readings can be large or run the other way; cell line not stated here;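 also: phosphodiesterase inhibitor Ro 20-1724 added with compounds to block cAMP breakdown; potency is read from the fitted curve at half-maximal effect; nearly all actives have a fitted effect of over 60% in size; about a fifth of the inactives were tested at one dose only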
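Cells stably selected in G418 were plated at 2000/well, grown 16-24 hr, then given compounds in DMSO with the PDE inhibitor […] (300 uM solution added) for 30 min at 37C; cAMP was read by HTRF.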
ClpP mod: qHTS Assay for Activators of ClpP; AID 651965, 2013; 340,000 compounds, 1.9% hits; Potency, µM (doses to about 57.5 µM), without a hit: at the top dose activity change, negative = active; purified B. subtilis ClpP, FRET peptide cleavage, 20 min; active = well fitted falling curve with a large enough effect; inconclusive = small, poorly fitted or top-dose-only effect; inactive = no such curve, though single readings can be large or run the other way; also: potency is read from the fitted curve at half-maximal effect; the source files actives as falling curves though it sought activators and does not explain the sign; nearly all actives have a fitted effect of over 65% in size; many hits overshoot -100%
Target sequence (P80244 whole entry, looked up): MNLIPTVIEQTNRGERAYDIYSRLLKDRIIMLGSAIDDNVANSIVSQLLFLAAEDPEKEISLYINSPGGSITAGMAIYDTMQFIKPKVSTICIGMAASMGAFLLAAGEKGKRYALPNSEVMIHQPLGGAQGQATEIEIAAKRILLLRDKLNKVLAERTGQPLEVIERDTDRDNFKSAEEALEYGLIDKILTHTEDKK
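Purified B. subtilis ClpP, 10 microg/mL final in Tris/HCl pH8 with KCl, BSA, glycerol and Tween-20, cleaved an Abz/nitrotyrosine-quenched decapeptide. Fluorescence (ex 320, em 430) was read at 0 and 20 min at room temperature. Delta was normalized to 5.8 microM ADEP and DMSO/no-enzyme controls.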
D2 potentiator: positive allosteric modulators of human D2 dopamine receptor; P14416; potentiation, % (no concentration beside the values); DiscoveRx D2 beta-arrestin cells, luminescence, 90 min; 100% = 57 uM dopamine signal; 360,000 compounds, 0.23% hits; AID 624464; active = potentiation of 50% or more; inconclusive = 30% to 50%; inactive = 30% or less;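 also: compound concentration not given in the record; tested on top of an EC20 dose of dopamine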
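D2 cells co-treated with compound plus 50 nM dopamine (EC20) for 90 min at 37 deg C to detect potentiation. Beta-arrestin recruitment was read as enzyme-fragment luminescence after 1 h at ambient temperature. Full response was set by 57 uM dopamine.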
gsp antagonist: antagonists of gsp mutant (McCune-Albright syndrome); gsp-mutant cells, cAMP HTRF, 30 min; control for the full effect not named in the record; Potency, µM (doses to about 76.9 µM), inactives show at the top dose activity change, negative = inhibition, usual class: inhibitors; 340,000 compounds, 0.4% hits; AID 624288; active = falling curve of any shape with a large fitted effect; inconclusive = falling curve, mostly with a smaller effect; inactive = flat or rising curve; cell line not stated here;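 also: intracellular cAMP measured with PDE inhibitor Ro 20-1724 present during compound exposure; potency is read from the fitted curve at half-maximal effect; % is scaled to controls: 0 for no effect and ±100 for the full control effect; nearly all actives have a fitted effect of over 65% in size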
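Cells in G418 medium, seeded 16-24 h, 37C; buffer exchange to DPBS + 1 mM CaCl2, 0.5 mM MgCl2, 0.05% BSA; cpds in DMSO + […] (300 uM stock), 30 min 37C; HTRF cAMP detection.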
Starred values were filed as active, the others as inactive; ? = inconclusive; nt = not tested or not shown; & = joins results of further samples; [ ] = another dose, or the depositor's remark. Compounds were not picked by outcome; 5.1% or so of the library scored in one or more.

Compound	Sfp PPTase inh	TRPV1 PAM	ClpP mod	D2 potentiator	gsp antagonist	gsp ag	Menin MLL FP FL
CCCC1Cc2nc(N3CCCCC3)c(C#N)cc2CO1 (stereo unspecified)	14%	8	?	-8	0%	-56%[inhibitor]	-13
Cc1nc(-c2nc(-c3c(C(=O)NN)noc3C)cs2)cs1	-15%	2	nt	-5	-2%	-35%	-5.1
COCCCn1cc(C(=O)c2cc(Br)ccc2O)cc(C#N)c1=O	2%	-1	nt	8	-13%	-3%[15.4 µM]	16
Cn1c(/C=C/c2ccccc2)nc2ccccc2c1=O	-25%	-10	1.7%	-1	-5%	-14%[15.4 µM]	-6.1
Cc1nc(SCc2cccc(Oc3ccccc3)c2)n[nH]1	7%	14	0.5%	-8	-10%	3%	1.9
COC(=O)C1=C(CS(=O)(=O)c2ccccc2)NC(=O)NC1c1ccc(O)cc1 (stereo unspecified)	4%	4	-5.7%	-4	3%	27%	-8.3
COc1cccc(NC(=O)N2CCCC2C(=O)NC2CCCCC2)c1 (stereo unspecified)	21%	-2	nt	-5	16%	-2%[15.4 µM]	3.9
O=S(=O)(NCC1CCCO1)c1ccc(Cl)nc1 (stereo unspecified)	4%	1	nt	-6	3%	-13%	4.5
Cc1ccc(SC[C@H](Cc2ccccc2)N2CCN(CCc3ccccc3)CCC2=O)cc1	?	?	-13%	-18	5%	nt	7.3
COc1ccc(S(=O)(=O)CCc2nnc(NC(=O)c3ccc(F)cc3)s2)cc1	12%	8	nt	0	6%	14%[15.4 µM]	1.0
Cc1ccc(C(=O)OC(C)C(=O)Nc2ccc(Cl)cn2)s1 (stereo unspecified)	nt	1	-5.8%	-3	10%	-6%	nt
N#CCc1nn(-c2ccccc2)c(N)c1C#N	11%	1	0.9%	-8	-10%	-1%	3.7
COc1ccccc1-c1nnc(SCC(=O)Nc2ccccc2)o1	2%	-2	-0.4%	-12	-11%	-5%	3.1
CCOC(=O)C(=CNc1cc(C)ccn1)C(=O)OCC	6%	-11	11%	3	-7%	-21%	0.1
O=C(NC1CCCC1)c1csc2c1CCCC2	10%	-7	0.0%	-5	-1%	?	2.3
CCc1cc(Cn2nc(-c3ccccc3)cc2C(=O)NCc2ccccc2OC)on1	nt	?	-0.9%	-2	-4%	nt	nt
N#CCCN(C(=S)NC(=O)C1CCCCC1)c1ccccc1F	nt	nt	nt	-6	6%	-26%	nt
O=C(NNC(=O)c1cc(-c2cccc(Br)c2)nc2ccccc12)c1csc(N2CCOCC2)n1	nt	11	-1.1%	-13	-9%	-8%[15.4 µM]	nt
CCOc1nc(C)nc(NC(=O)NS(=O)(=O)c2ccccc2Cl)n1	20%	-5	-2.6%	-2	12%	30%	1.7
Cc1ccc2nc(COc3ccc(N(C)S(=O)(=O)c4ccccc4)cc3)cc(=O)n2c1	-4%	5	?	-2	?	-3%	-10
CC(C)n1c(-c2ccccc2)nc(=S)c2c1CCCC2	2%	2	nt	nt	nt	nt	6.9
CCOC(=O)c1c(C)[nH]c(C)c1C(=O)CSc1nc2ccccc2c(=O)n1-c1ccc(C)cc1	6%	1	?	2	0%	-7%	10
O=C(NCC(c1cccnc1)N1CCN(c2ccc(F)cc2)CC1)OCc1ccccc1 (stereo unspecified)	-2%	-10	-1.9%	7	-9%	24%	0.5
Cc1nc(C)c(-c2ccc(SCc3ccc([N+](=O)[O-])cc3)nn2)s1	-3%	5	-3.8%	-1	-10%	-39%	nt
Cc1cc(=O)[nH]c(SCC(=O)Nc2ccc3c(c2)CCC3)c1C#N	nt	-4	-1.3%	1	-11%	0%	nt
CCN(CC)CCn1c(O)c(N=O)c2ccccc21	8%	0	-2.4%	-21	-20%	24%	-0.6
Cc1cccc(C)c1NC(=O)C1C2C=CC(C2)C1C(=O)O (stereo unspecified)	-21%	3	-1.2%	1	7%	2%[15.4 µM]	-1.0
COc1cccc(C(=O)OCC(=O)N2CCc3ccccc3C2)c1OC	nt	nt	-1.1%	-9	-20%	6%[15.4 µM]	nt
Cc1ccc([N+](=O)[O-])c(NC(=O)COC(=O)CCNS(=O)(=O)c2cccs2)c1C	nt	nt	-0.2%	5	nt	-152%[inhibitor]	nt
COc1ccc(C(=O)OCC2CC(c3ccccc3)=NO2)cc1OC (stereo unspecified)	-5%	9	-0.7%	-3	-5%	8%	-2.9
O=C(Nc1ccc(F)c(Cl)c1)C1CCCN(C2=NS(=O)(=O)c3ccccc32)C1 (stereo unspecified)	nt	3	1.8%	-32	?	-29%	nt
O=C(/C=C/c1cccs1)N1CCCCC1	4%	9	nt	-2	-1%	18%	5.7
Cc1[nH][nH]c(=O)c1C(c1ccc(O)c([N+](=O)[O-])c1)c1c(C)[nH][nH]c1=O	0%	-18	-0.9%	-5	-3%	13%	0.7
S=C1NCCOCCNC(=S)NCCOCCOCCOCCN1	-5%	6	-2.2%	-20	23%	6%	-1.4
COc1ccc(N2CCN(C3CC(=O)N(c4ccc5c(c4)OCCO5)C3=O)CC2)cc1 (stereo unspecified)	3%	-5	-4.5%	-13	0%	-16%	-2.9
O=C(CCc1ccncc1)N1CCCC(Nc2ccc(F)cc2)C1 (stereo unspecified)	11%	-13	-0.8%	-15	-8%	5%	nt
CCCCS(=O)(=O)N1CCN(S(=O)(=O)c2ccc(Cl)s2)CC1	10%	23	2.0%	-10	-10%	?	nt
CCCCCNC(=O)c1ccc2c(=O)n(CC3CCCO3)c(=O)[nH]c2c1 (stereo unspecified)	0%	-6	?	-9	4%	-32%[inhibitor]	-2.1
Cc1cc(C)nc(SCNC(=O)c2ccc(Cl)cc2)n1	56µM*	-19	-6.2%	9	8%	6%	3.5
CC(NC(=O)CN1C(=O)NC(C)(C2CC2)C1=O)c1ccc(F)cc1 (stereo unspecified)	nt	-7	nt	2	3%	9%[15.4 µM]	nt
O=C(O)C[C@H]1c2ccccc2S(=O)(=O)N1c1ccccc1	nt	nt	2.2%&0.2%	-7	4%	nt	nt
O=C(NCC1CC1)c1ccccc1Cl	5%	-12	-3.4%	-5	11%	-28%	5.4
O=C(CCNC(=O)C1CCN(S(=O)(=O)c2ccccc2)CC1)NCc1cccc(C(F)(F)F)c1	10%	13	0.0%	-6	6%	4%	nt
COc1ccc(NC(=O)c2ccc(C(=O)c3cc(OC)ccc3OC)cc2)cc1	6%	-14	0.0%	-7	17%	?	3.6
C#CCOCCOCCOCCNc1nc(N2CCN(C(=O)C([C@@H](C)CC)n3cc(C(N)CO)nn3)CC2)nc(N2CCN(C(=O)[C@H](CCC(=O)O)n3cc(C(N)CC(C)C)nn3)CC2)n1 (stereo partly specified)	6%	13	0.9%	0	2%	8%	1.2
Cn1ccnc1-c1nc2ccccc2[nH]c1=O	9%	2	-18%	1	-1%	-55%[inhibitor]	-5.1
Cc1ccc(S(=O)(=O)N(CC(=O)N2CCN(c3ccc(F)cc3)CC2)C2CCCCC2)cc1	2%	-3	-0.1%	-2	-5%	-2%	0.3
O=C(COC(=O)CSCC(=O)N1CCCCC1)NCc1ccc(F)cc1	16%	19	0.9%	-11	1%	-32%[inhibitor]	-5.7
CCOc1ccc(N/C(N)=N/c2nc(C)c(C)c(=O)[nH]2)cc1	13%	14	nt	5	-5%	-28%	-2.8
Cc1noc(C)c1S(=O)(=O)N1CCN(C(c2ccccc2)c2ccc(Cl)cc2)CC1 (stereo unspecified)	13%	nt	0.7%	-7	-29%	?	6.4
Cc1ccc(NS(=O)(=O)c2cc(C(=O)N3CCN(CCO)CC3)ccc2C)cc1	nt	-8	0.4%	0	-1%	6%	nt
Cc1ccc(S(=O)(=O)N2CCN(C(=O)COC(=O)CCOc3ccccc3)CC2)c(C)c1	nt	-1	-0.3%	-3	-2%	10%	nt
CC1=CCC[C@H]2[C@H](C1)C(=O)C[C@@H](C)[C@]2(C)CC/C(=C/CO)CO	nt	nt	-2.2%	-55	0%	nt	nt
CCOc1ccc(S(=O)(=O)N2CCN(C(=O)COc3ccc(Br)cc3)CC2)cc1	nt	nt	-2.3%	-6	-12%	16%	nt
C=CCNC(=O)c1onc(CSc2ccccc2CC)c1C(=O)O	-1%	?	-1.0%	9	-10%	nt	4.3
Cc1ccc(CN(Cc2cc3cccc(C)c3[nH]c2=O)C(=O)N(C)C)cc1	17%	-4	-7.3%	-37	-17%	27%	1.1
COc1ccccc1C(=O)NCCC(=O)N1CC=C(c2ccccc2)CC1	nt	1	-1.6%	-13	2%	-8%	nt
COc1ccc(C(=O)OCC(=O)N2c3ccccc3CC2C)cc1S(=O)(=O)N1CCOCC1 (stereo unspecified)	nt	nt	0.8%	3	nt	-37%[inhibitor]	nt
Cc1noc(NS(=O)(=O)c2ccc(NC(=O)CSc3nc4ccccc4[nH]3)cc2)c1C	8%	1	-0.3%	14	0%	-4%	4.3
